HNF4A DNA FP: change in binding of human HNF4 alpha to DNA | AID 1224865 | HNF4a-FITC DNA binding, fluorescence polarization, 1 h | 0.3% of 360,000 active | activity change, % at 10 µM; in the data active = activity change above about 30%, passing the limit was not always enough;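 note: controls were the assay level and a saturating level of protein; the project sought stronger binding though the title names inhibitors; some compounds called inactive have numbers as strong as hits; positive values seem to mean higher polarization but the record does not say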
Beta2AR agonist: agonists of human beta-2 adrenergic receptor inducing internalization | P07550 | Am2.2-beta2AR cells, FAP receptor internalization, flow cytometry; reference of the scale not given here | AID 504454 | response, % (test concentration not listed) | 0.43% of 340,000 active;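 active = response above a set limit, near 3 SD of response in nonfluorescent compounds, cut at about 42% in these data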;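 note: stock transfer was 100 nL into about 11 µL; a reference agonist was the positive control; negative values mostly stem from fluorescent compounds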
LANA-H2B inh: blocks KSHV LANA binding to histone H2A/H2B; cell-free LANA-H2A/H2B peptide, fluorescence polarization; 0.6% of 320,000 active; AID 2629; Q9QR71; inhibition, % (concentration not given with the values); in the data active = inhibition mostly above about 10%, no sharp cut-off; inactive = mostly below about 6.7%;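 note: stock transfer was 7.5 nL into about 10 µL; 0% = median of vehicle wells and 100% = median of positive control wells; one replicate is shown; the record names a cut of 25% in any replicate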
Target sequence (Q9QR71 whole entry, looked up): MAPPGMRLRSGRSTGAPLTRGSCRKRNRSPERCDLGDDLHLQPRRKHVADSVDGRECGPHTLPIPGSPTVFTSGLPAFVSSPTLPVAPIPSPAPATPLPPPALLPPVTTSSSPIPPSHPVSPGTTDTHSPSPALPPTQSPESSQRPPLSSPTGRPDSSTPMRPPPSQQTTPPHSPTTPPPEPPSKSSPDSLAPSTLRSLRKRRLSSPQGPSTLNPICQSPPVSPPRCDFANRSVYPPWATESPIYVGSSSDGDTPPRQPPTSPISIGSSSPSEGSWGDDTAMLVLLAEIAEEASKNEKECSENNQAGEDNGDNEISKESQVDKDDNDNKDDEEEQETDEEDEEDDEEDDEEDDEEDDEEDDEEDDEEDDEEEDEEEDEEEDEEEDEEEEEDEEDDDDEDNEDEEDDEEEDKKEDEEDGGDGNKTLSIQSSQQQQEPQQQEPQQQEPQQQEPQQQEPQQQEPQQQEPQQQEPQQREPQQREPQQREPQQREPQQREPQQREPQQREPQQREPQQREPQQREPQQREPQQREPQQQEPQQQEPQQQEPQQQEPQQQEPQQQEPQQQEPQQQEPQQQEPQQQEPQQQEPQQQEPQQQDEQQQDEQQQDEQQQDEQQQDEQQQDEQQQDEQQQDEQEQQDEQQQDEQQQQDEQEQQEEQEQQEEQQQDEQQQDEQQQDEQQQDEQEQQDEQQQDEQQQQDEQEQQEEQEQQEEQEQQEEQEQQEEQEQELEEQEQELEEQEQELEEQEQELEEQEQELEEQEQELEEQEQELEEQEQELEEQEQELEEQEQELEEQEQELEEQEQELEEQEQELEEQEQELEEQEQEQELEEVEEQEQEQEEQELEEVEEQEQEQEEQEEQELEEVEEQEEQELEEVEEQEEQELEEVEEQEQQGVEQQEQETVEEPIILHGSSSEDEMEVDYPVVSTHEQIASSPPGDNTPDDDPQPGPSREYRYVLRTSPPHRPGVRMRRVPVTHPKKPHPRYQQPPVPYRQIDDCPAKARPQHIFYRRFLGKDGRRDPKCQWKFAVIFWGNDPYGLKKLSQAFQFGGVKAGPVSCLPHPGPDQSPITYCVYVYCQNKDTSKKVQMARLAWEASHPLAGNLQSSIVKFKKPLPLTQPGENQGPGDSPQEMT
UCH37 inh: inhibitors of human deubiquitinating enzyme UCH37; Q9Y5K5; purified proteasome/UCH37, Ub-AMC cleavage fluorescence; inhibition, % (concentration not given with the values); 0.33% of 330,000 active; AID 588478;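 active = mean of two replicates above 20%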;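 note: 0% = compound-free wells with enzyme and 100% = wells lacking proteasome; stock transfer was 100 nL into about 20 µL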
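Signal – fluorescence, ex 355 nm, em 460 nm · System – Proteasome-bound UCH37 · Input – 0.15 nM proteasome as dispensed · Timing – 30 min preincubation with enzyme, 25 min cleavage at room temperature · Read-out basis – percent inhibition of cleavage signal versus uninhibited and no-proteasome wells · Medium – Tris-HCl pH 7.4 with ATP-MgCl2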
Vif TR-FRET: inhibitors of Vif binding to APOBEC3G peptide, primary screen, biochemical, TR-FRET, GST-Vif 1-94, biotin-A3G peptide, dose response retest (AID 1117319). TR-FRET GST-Vif / biotin-A3G peptide binding; higher % means a stronger effect; test concentration not given here; strong numbers were not always called active. inhibition, %; hits with a dose series show IC50 in µM. 0.57% of 260,000 active;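 active = above the screen mean plus three standard deviations and confirmed in dose response; inconclusive = results disagree or hit not tested in dose response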;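 note: Vif residues 1-94 fused to GST binding biotinylated APOBEC3G peptide 110-148; 0% = full assay without inhibitor and 100% = GST in place of GST-Vif; retest series ran down from 100 µM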
Bfl-1 A1 inh: inhibitors of the anti-apoptotic protein A1, read as caspase activation; MEF A1-2A-BIM cells, Caspase-Glo 3/7 luminescence, 3 h; percent of clofoctol response, vehicle zero; caspase activation, % (test concentration not listed); 0.066% of 330,000 active; AID 2462;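 active = over half of replicate activation scores above 10%, or exactly half above 10 with the replicate mean above 10; inconclusive = replicate mean below 10 yet half the replicates above 10; inactive = over half of replicates below 10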;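 note: wells of about 30 µL received 50 nL stock; many hits fall short of the cut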
Ecoli growth: blocks Escherichia coli growth. OD600, 23 h; hits give low values. OD600 absorbance (concentration not given with the values). 0.21% of 330,000 active. AID 1053175;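 active = OD600 absorbance below the run mean of sample wells minus 3.6 SD, in any replicate, cut at about 0.56 in these data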;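 note: stock transfer was 300 nL into about 60 µL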
An asterisk follows results filed as active.

Screening O=C(NCc1cccnc1)c1ccc(S(=O)(=O)N2CCCCCC2)cc1 returned HNF4A DNA FP -0.1, Beta2AR agonist -1, LANA-H2B inh -2.9, UCH37 inh 0.4, Vif TR-FRET 24%, Bfl-1 A1 inh 0.3 and Ecoli growth 0.69.
For CN(C)c1ccc(C(=O)c2ccccc2C(=O)O)c(O)c1 the results were HNF4A DNA FP -0.2, Beta2AR agonist -12, LANA-H2B inh 3.5, UCH37 inh 23*, Vif TR-FRET inconclusive, Bfl-1 A1 inh 0.4 and Ecoli growth 0.74.
Screening O=C(CN1CCc2cc3c(cc2C1)OCCCO3)Nc1cccc(Br)c1 returned HNF4A DNA FP 2.8, Beta2AR agonist -2, LANA-H2B inh 0.1, UCH37 inh 2.5, Bfl-1 A1 inh 1.9 and Ecoli growth 0.69.
Screening Cc1ccsc1/C=C/C(=O)O returned HNF4A DNA FP 3.7, Beta2AR agonist -8, LANA-H2B inh -4.6, UCH37 inh -0.9, Vif TR-FRET 11%, Bfl-1 A1 inh -0.3 and Ecoli growth 0.69.
Screening COc1ccc(OC)c(NC(=O)N2CCCC(C(=O)c3ccccc3OC)C2)c1 (stereo not drawn) returned HNF4A DNA FP 3.4, Beta2AR agonist -4, LANA-H2B inh -1.8, UCH37 inh -1.2, Vif TR-FRET 13%, Bfl-1 A1 inh 1.7 and Ecoli growth 0.65.
Screening CCCC1(C(=O)OCC)NC(c2ccc(N(C)C)cc2)C2C(=O)N(c3ccc4c(c3)OCCO4)C(=O)C21 (stereo not drawn) returned HNF4A DNA FP 2.5, Beta2AR agonist -2, LANA-H2B inh 3.0, UCH37 inh 5.4, Vif TR-FRET 23%, Bfl-1 A1 inh 1.1 and Ecoli growth 0.73.
O=C(COC(=O)Cc1n[nH]c(=O)c2ccccc12)NNC(=O)c1ccc(Br)cc1 was read as HNF4A DNA FP -2.7, Beta2AR agonist -8, LANA-H2B inh -8.0, UCH37 inh 3.4, Bfl-1 A1 inh -0.4 and Ecoli growth 0.7.
`COc1ccccc1CNC(=O)CCCC(=O)n1ncc2cc(C)ccc21` gave HNF4A DNA FP -2.7, Beta2AR agonist -17, LANA-H2B inh 1.4, UCH37 inh 4.7 and Ecoli growth 0.81.
`O=C(CSc1nc2ccccc2o1)Nc1ccc(N2CCOCC2)cc1` gave HNF4A DNA FP 0.7, Beta2AR agonist -15, LANA-H2B inh -4.3, UCH37 inh 3.3, Vif TR-FRET 13%, Bfl-1 A1 inh 0.5 and Ecoli growth 0.56.
Screening COc1ccc(CN2C(=O)C(C)Oc3ccccc32)cc1 (stereo not drawn) returned HNF4A DNA FP 2.4, Beta2AR agonist -4, LANA-H2B inh -1.7, UCH37 inh 6.8, Vif TR-FRET -2%, Bfl-1 A1 inh 0.4 and Ecoli growth 0.68.
Screening Cc1ccc(NC(=O)c2cnccn2)nc1 returned HNF4A DNA FP -1.2, Beta2AR agonist 0, LANA-H2B inh 5.3, UCH37 inh -1.5, Bfl-1 A1 inh -0.7 and Ecoli growth 0.68.
`CCOc1cc(CNc2ccc(S(N)(=O)=O)cc2)ccc1OCC(=O)NC(C)(C)C` gave HNF4A DNA FP -2.6, Beta2AR agonist 27, LANA-H2B inh -1.9, UCH37 inh -1.5, Vif TR-FRET 2%, Bfl-1 A1 inh 0.3 and Ecoli growth 0.69.
For CCN(CC)Cc1c(O)ccc2c(=O)c(-c3ccccc3)coc12 the results were HNF4A DNA FP 1.4, Beta2AR agonist -5, LANA-H2B inh 1.3, UCH37 inh -444, Bfl-1 A1 inh 0.5 and Ecoli growth 0.69.
Screening COc1ccc(CNC(=O)CN2C(=O)NC(c3ccccc3)(c3ccccc3)C2=O)cc1 returned HNF4A DNA FP -1.3, Beta2AR agonist 2, LANA-H2B inh 0.0, UCH37 inh 1.6, Vif TR-FRET -1%, Bfl-1 A1 inh -0.2 and Ecoli growth 0.7.
C=CCNC(=O)c1scc2c1CCCC2 was read as HNF4A DNA FP -0.2, Beta2AR agonist 20, LANA-H2B inh 1.0, UCH37 inh 2.4, Vif TR-FRET 4%, Bfl-1 A1 inh -0.2 and Ecoli growth 0.72.

Reprinted from the part before: 2 compounds; new compounds follow.
Screening COc1ccc(CNC(=O)CN2C(=O)NC(c3ccccc3)(c3ccccc3)C2=O)cc1 returned HNF4A DNA FP -1.3, Beta2AR agonist 2, LANA-H2B inh 0.0, UCH37 inh 1.6, Vif TR-FRET -1%, Bfl-1 A1 inh -0.2 and Ecoli growth 0.7.
C=CCNC(=O)c1scc2c1CCCC2 was read as HNF4A DNA FP -0.2, Beta2AR agonist 20, LANA-H2B inh 1.0, UCH37 inh 2.4, Vif TR-FRET 4%, Bfl-1 A1 inh -0.2 and Ecoli growth 0.72.
For CCn1c(=O)n(CC(=O)Nc2ccc(F)cc2)c(=O)c2ccccc21 the results were HNF4A DNA FP 2.0, Beta2AR agonist 3, LANA-H2B inh 2.6, UCH37 inh 1.1, Vif TR-FRET 16%, Bfl-1 A1 inh 3.1 and Ecoli growth 0.67.
For Cc1cc2n(c(=O)c1C#N)CCCN2c1ccccc1 the results were HNF4A DNA FP 2.7, Beta2AR agonist -2, LANA-H2B inh -3.1, UCH37 inh -15, Vif TR-FRET 24%, Bfl-1 A1 inh 0.5 and Ecoli growth 0.66.
For COc1cccc(C2=NOC(C(=O)Nc3cc(C)on3)C2)c1 (stereo not drawn) the results were HNF4A DNA FP -3.0, Beta2AR agonist -6, LANA-H2B inh -1.4, UCH37 inh 1.9, Vif TR-FRET 4%, Bfl-1 A1 inh 1.1 and Ecoli growth 0.68.
Screening COc1ccccc1Oc1ccc(-c2cnc3ccccc3n2)cc1[N+](=O)[O-] returned HNF4A DNA FP 5.3, Beta2AR agonist -6, LANA-H2B inh -3.9, UCH37 inh 4.4, Vif TR-FRET -7%, Bfl-1 A1 inh 0.1 and Ecoli growth 0.73.
`CN(c1ccccc1)S(=O)(=O)c1cccc(C(=O)OCC(=O)NCc2ccc3c(c2)OCO3)c1` gave HNF4A DNA FP 1.3, Beta2AR agonist 8, LANA-H2B inh 0.4, UCH37 inh 0.9, Vif TR-FRET 13%, Bfl-1 A1 inh 0.1 and Ecoli growth 0.72.
`COc1ccc(N2CCN(C(c3nnnn3C3CCCC3)C(C)C)CC2)cc1` (stereo not drawn) gave HNF4A DNA FP 3.3, Beta2AR agonist -2, LANA-H2B inh 3.9, UCH37 inh -2.0, Vif TR-FRET 4%, Bfl-1 A1 inh 0.5 and Ecoli growth 0.69.
`C[N+]1(CCC(=O)c2ccccc2)CCCCC1` gave HNF4A DNA FP 7.4, Beta2AR agonist -1, LANA-H2B inh 0.8, UCH37 inh 2.2, Vif TR-FRET 3%, Bfl-1 A1 inh 0.3 and Ecoli growth 0.67.
COc1ccc(-c2ccc3c(c2)S(=O)(=O)c2cccc(C(=O)NCc4ccccc4Cl)c2C3=O)cc1OC was read as HNF4A DNA FP -2.0, Beta2AR agonist -7, LANA-H2B inh 2.3, UCH37 inh -1.4, Bfl-1 A1 inh -0.1 and Ecoli growth 0.63.
Screening CC(C)CC(c1nnnn1Cc1ccccc1)N1CCC(C(N)=O)CC1 (stereo not drawn) returned HNF4A DNA FP -2.1, Beta2AR agonist 5, LANA-H2B inh 2.8, UCH37 inh -2.5, Vif TR-FRET -3%, Bfl-1 A1 inh -0.4 and Ecoli growth 0.7.
Screening COc1ccc(C(=O)NC(C)c2nnc(SCc3ccc(Cl)c(Cl)c3)n2C)cc1 (stereo not drawn) returned HNF4A DNA FP 2.0, Beta2AR agonist -1, LANA-H2B inh -2.6, UCH37 inh 0.4, Vif TR-FRET -3%, Bfl-1 A1 inh 0.9 and Ecoli growth 0.72.
`Cc1ccc(CNC(=O)C2(C)Oc3ccccc3NC2=O)cc1` (stereo not drawn) gave HNF4A DNA FP 2.4, Beta2AR agonist 2, LANA-H2B inh -1.7, UCH37 inh -0.1, Vif TR-FRET 2%, Bfl-1 A1 inh 2.2 and Ecoli growth 0.68.
`COc1ccc(NC(=S)N/N=C/c2cccn2Cc2ccc(F)cc2)cc1` gave HNF4A DNA FP 0.0, Beta2AR agonist -13, LANA-H2B inh 2.5, Vif TR-FRET 25% and Bfl-1 A1 inh 0.2.
COc1cc(C)c(CN2CCC(Oc3ccc(C(=O)N4CCCC4)cc3)CC2)cc1C was read as HNF4A DNA FP 1.3, Beta2AR agonist 0, LANA-H2B inh -6.6, UCH37 inh 2.0, Bfl-1 A1 inh -0.1 and Ecoli growth 0.72.
Screening COc1cc(Oc2nc(C(F)(F)F)nc3ccccc23)ccc1C=O returned HNF4A DNA FP 0.2, Beta2AR agonist -1, LANA-H2B inh 1.1, UCH37 inh 3.6, Bfl-1 A1 inh 2.1 and Ecoli growth 0.67.
For Cc1noc(NS(=O)(=O)c2ccc(NC(=O)c3ccc(Cl)c(S(=O)(=O)N(C)c4ccccc4)c3)cc2)c1C the results were HNF4A DNA FP 1.7, Beta2AR agonist -9, UCH37 inh 1.8, Vif TR-FRET 5% and Ecoli growth 0.67.
`CCOc1ccc(NS(=O)(=O)c2ccc3c(c2)N(C(C)=O)CCS3)cc1` gave HNF4A DNA FP 3.8, Beta2AR agonist 2, LANA-H2B inh -5.5, UCH37 inh 4.6, Vif TR-FRET 0%, Bfl-1 A1 inh -0.8 and Ecoli growth 0.68.
Screening C=CCNC(=O)c1onc(CSc2cccc(Cl)c2)c1C(=O)O returned HNF4A DNA FP -2.8, Beta2AR agonist 5, LANA-H2B inh 3.9, UCH37 inh 4.2, Vif TR-FRET 16%, Bfl-1 A1 inh 1.1 and Ecoli growth 0.6.
For CC(C)[C@H](N)C(=O)N1CCC(C(=O)N[C@@H](Cc2ccccc2)C(=O)NCc2ccc(F)cc2)CC1 the results were HNF4A DNA FP -0.3, Beta2AR agonist 1, LANA-H2B inh -5.4, UCH37 inh -0.2, Bfl-1 A1 inh -0.1 and Ecoli growth 0.7.
`COc1ccc(Cc2nnc(NC(=O)c3ccc(OC(C)=O)cc3)s2)cc1OC` gave HNF4A DNA FP 0.1, Beta2AR agonist 6, LANA-H2B inh 3.6, UCH37 inh -0.2, Vif TR-FRET -3%, Bfl-1 A1 inh 1.0 and Ecoli growth 0.72.
Screening O=S(=O)(Nc1ccc2nc(N3CCOCC3)sc2c1)c1ccccc1 returned HNF4A DNA FP 0.1, Beta2AR agonist 7, UCH37 inh 2.3, Vif TR-FRET 5% and Ecoli growth 0.67.
Screening Cc1ccc(C(=O)N2CCC3(CC2)Oc2ccc(F)cc2C(=O)C32CC(c3ccccc3)=NO2)s1 (stereo not drawn) returned HNF4A DNA FP 1.4, Beta2AR agonist -8, LANA-H2B inh 1.5, UCH37 inh 2.9, Vif TR-FRET -2%, Bfl-1 A1 inh 0.3 and Ecoli growth 0.74.
For O=C(CC(NC(=O)C(F)(F)F)c1ccccc1)Nc1nnc(CCc2ccccc2)s1 (stereo not drawn) the results were HNF4A DNA FP -0.2, Beta2AR agonist -6, LANA-H2B inh -2.2, UCH37 inh 0.5, Bfl-1 A1 inh -0.1 and Ecoli growth 0.7.
For CCc1ccc(-c2cc(C(=O)N/N=C/c3ccccn3)[nH]n2)cc1 the results were HNF4A DNA FP 4.8, Beta2AR agonist 6, LANA-H2B inh 3.5, Vif TR-FRET 24% and Bfl-1 A1 inh 0.5.
`COc1ccccc1N1CCN(S(=O)(=O)CCNC(=O)C2CCCCC2)CC1` gave HNF4A DNA FP 1.0, Beta2AR agonist -6, LANA-H2B inh 1.7, UCH37 inh 2.5, Vif TR-FRET 7%, Bfl-1 A1 inh -1.6 and Ecoli growth 0.67.
`Cc1c(OCC(=O)NC2CC(C)(C)NC(C)(C)C2)ccc2c3c(c(=O)oc12)CCC3` gave HNF4A DNA FP 0.8, Beta2AR agonist -1, LANA-H2B inh -2.3, UCH37 inh -16, Bfl-1 A1 inh -0.6 and Ecoli growth 0.69.

From PubChem
